M1AAP inhibition = malaria alanyl aminopeptidase activity blockers – biochemical, fluorogenic H-Leu-NHMec substrate, 1536-well (AID 1445); hit rate 0.42% among 220,000; one-dose inhibition, % at 30 µM; IC50 in µM for titrated hits; recombinant M1AAP, H-Leu-NHMec fluorogenic kinetic assay; higher % means a stronger effect;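 active = primary inhibition above the hit cutoff, then over 50% inhibition at one or more dose response concentrations, cut at about 23% in these data, passing the limit was not always enough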;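 note: plate controls were DMSO full reaction for no effect and no enzyme background for full effect; strong numbers were not always called active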
XIAP antagonists = XIAP antagonists, biochemical, IAP family, fluorescence polarization (AID 1018) | XIAP BIR domain, fluorescence polarization peptide displacement; higher % means a stronger effect | one-dose displacement, % at 20 µM; IC50 in µM for titrated hits | hit rate 0.007% among 200,000; in the data active = displacement above about 50%; note: a part of the inactive calls stands beside numbers as strong as those of hits
TNAP activators = stimulation of alkaline phosphatase TNAP activity – biochemical, luminescent, no phosphate acceptor, uHTS, primary screen (AID 1001). purified TNAP, luminescent activation assay, no phosphate acceptor; higher activation fold means a stronger effect. one-dose activation fold at 20 µM; EC50 in µM for titrated hits. hit rate 0.03% among 200,000; in the data active = activation fold from about 3, or a potency from the dose series; inactive = the rest, 99 in 100 with activation fold below about 1.6; note: many of its hits are not listed in these tables
WT yeast gro inh = growth inhibition of WT yeast, mitochondrial fusion screen. inhibition, % at 10 µM. mitochondrial fusion phenotypic screen, WT strain. AID 1362. hit rate 2.1% among 190,000; in the data active = inhibition above about 58%; tested in S. cerevisiae
LYP phosphatase = inhibitors of LYP phosphatase, biochemical, fluorescence intensity, uHTS (AID 1779); recombinant LYP phosphatase, fluorescence intensity; higher % means a stronger effect; one-dose inhibition, % at 11.5 µM; IC50 in µM for titrated hits; hit rate 0.054% among 290,000; in the data active = inhibition above about 50%;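 note: plate controls were vehicle with enzyme for no effect and no enzyme for full effect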
P. falciparum M17LAP = P. falciparum M17LAP inhibitors, primary screen, biochemical, fluorogenic H-Leu-NHMec substrate, 1536-well (AID 1619); inhibition, % at 30 µM; hits with a dose series show IC50 in µM; hit rate 0.38% among 220,000; recombinant M17LAP, H-Leu-NHMec fluorogenic kinetic assay; higher % means a stronger effect;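 active = compound inhibiting the enzyme by more than half at any dose during confirmatory dose-response retesting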;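 note: plate controls were full reaction with DMSO carrier for no effect and no enzyme background for full effect; strong numbers were not always called active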
Yfh1-depleted yeast = mitochondrial function rescue without frataxin homolog – Friedreich's ataxia, plus single-dose screen, dose response (AID 1465); S. cerevisiae Yfh1-off respiration, WST-1 reduction, 72 h; higher fold induction means a stronger effect; fold induction at 50 µM, or EC50 in µM where a hit was titrated; hit rate 0.074% among 220,000;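 active = fold induction of absorbance versus untreated yeast above a set limit, then at least 30% activation at any dose in follow-up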;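 note: activators that raise dye reduction in frataxin-depleted yeast; strong numbers were not always called active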
WT yeast gro inh mutant strain = second read-out of WT yeast gro inh, no call of its own (marks repeat the call); inhibition, %; mitochondrial fusion phenotypic screen, mutant strain inhibition
Starred values were filed as active, the others as inactive; i = inactive; · = not tested or not shown. This is a subset; the hit share may differ from the screen's.

1. O=C(OCc1ccc(C(=O)c2ccccc2)cc1)c1cccc(-c2nnc(-c3ccccc3)o2)c1
2. CCc1cccc(CC)c1-n1c(SCc2cc(=O)n3ccsc3n2)nnc1-c1cccnc1
3. Cc1ccc(F)cc1NC(=O)C12CC3CC(C1)CC(n1cnc([N+](=O)[O-])n1)(C3)C2
4. O=C(c1c(F)cccc1F)N1CCN(c2ccccc2F)CC1
5. CCOC(=O)c1[nH]c2ccc(OC)cc2c1NC(=O)NC(C)C
6. CCC(C)Sc1nnc(CSc2nc3nc(C)cc(C)n3n2)o1 (stereo not drawn)

entry no. | 1 | 2 | 3 | 4 | 5 | 6
M1AAP inhibition | -4% | -2% | 6% | 5% | 5% | -1%
XIAP antagonists | -4.8% | 0.0% | -2.3% | 1.0% | 0.4% | -2.0%
TNAP activators | 1 | 1.1 | 1.1 | 1.1 | 1.1 | 1.1
WT yeast gro inh | 2 | -7 | 5 | 19 | -2 | 0
WT yeast gro inh mutant strain | -1 | 15 | -4 | 18 | -5 | -22
LYP phosphatase | -10% | -5% | -10% | -6% | 3% | -8%
P. falciparum M17LAP | 7% | 14% | 6% | 0% | 5% | -5%
Yfh1-depleted yeast | i | i | i | i | i | i

Whole records from above:
O=C(OCc1ccc(C(=O)c2ccccc2)cc1)c1cccc(-c2nnc(-c3ccccc3)o2)c1 is listed with M1AAP inhibition = -4%; XIAP antagonists = -4.8%; TNAP activators = 1; WT yeast gro inh = 2; WT yeast gro inh mutant strain = -1; LYP phosphatase = -10%; P. falciparum M17LAP = 7%; Yfh1-depleted yeast = i
CCOC(=O)c1[nH]c2ccc(OC)cc2c1NC(=O)NC(C)C is listed with M1AAP inhibition = 5%; XIAP antagonists = 0.4%; TNAP activators = 1.1; WT yeast gro inh = -2; WT yeast gro inh mutant strain = -5; LYP phosphatase = 3%; P. falciparum M17LAP = 5%; Yfh1-depleted yeast = i

More results follow.
7. CCNC(=S)NS(=O)(=O)c1ccccc1
8. O=C(O)C(Cc1ccccc1)N1C(=O)c2ccccc2C1=O (stereo not drawn)
9. CC1CCN(CCCCOc2ccccc2[N+](=O)[O-])CC1
10. Cc1cccc2c1OCC/C2=N\NC(=O)COc1ccccc1Cl
11. O=C(CSc1nnc(-c2ccccc2)n1-c1ccccc1)c1cccs1
12. CCN(C(=O)COc1cc(=O)n(CC)c2ccccc12)c1cc(Cl)ccc1OC

entry no. | 7 | 8 | 9 | 10 | 11 | 12
M1AAP inhibition | 11% | 6% | 3% | -5% | -2% | -1%
XIAP antagonists | -1.3% | -1.4% | -2.6% | -2.0% | -18% | -13%
TNAP activators | 1.2 | 1.1 | 1.1 | 1 | 1.1 | 1.2
WT yeast gro inh | -1 | -15 | -2 | 9 | 5 | 21
WT yeast gro inh mutant strain | 2 | -16 | 5 | -8 | 9 | 14
LYP phosphatase | -5% | -8% | -2% | -2% | 1% | 0%
P. falciparum M17LAP | -5% | 0% | 18% | 12% | 2% | -5%
Yfh1-depleted yeast | i | i | i | i | · | i

13. CC1CCN(CC(C)CNC(=O)c2cc(-c3ccccn3)nc3ccccc23)CC1 (stereo not drawn)
14. COc1ccc(NC(=O)C(CCS(C)(=O)=O)NC(C)=O)cc1 (stereo not drawn)
15. COc1ccccc1Oc1ccc2c(c1)C(=O)N(c1ccc(C)cc1)C2=O
16. COC(=O)c1ccc(Sc2ccccc2NS(=O)(=O)c2ccc(C)cc2)nc1
17. Cc1nc(NC(=O)c2ccco2)sc1-c1csc(Nc2ccc(Cl)cc2Cl)n1
18. c1coc(CNc2ncnc3nc[nH]c23)c1

entry no. | 13 | 14 | 15 | 16 | 17 | 18
M1AAP inhibition | 10% | -5% | 0% | -6% | 6% | 1%
XIAP antagonists | -22% | 0.5% | -5.2% | -1.8% | -0.3% | -5.8%
TNAP activators | 0.9 | 1.1 | 1.1 | 1.1 | 1.1 | 1.2
WT yeast gro inh | -5 | 9 | 12 | 1 | 71* | -16
WT yeast gro inh mutant strain | 6 | 4 | 6 | 12 | 35* | 10
LYP phosphatase | -1% | -2% | -10% | -3% | 0% | 1%
P. falciparum M17LAP | 9% | 8% | 0% | -10% | 12% | 6%
Yfh1-depleted yeast | i | i | · | i | i | i

Single values from the entries so far:
TNAP activators result of `c1coc(CNc2ncnc3nc[nH]c23)c1` = 1.2
P. falciparum M17LAP result of `CC1CCN(CC(C)CNC(=O)c2cc(-c3ccccn3)nc3ccccc23)CC1` (stereo not drawn) = 9%
P. falciparum M17LAP result of `COc1ccccc1Oc1ccc2c(c1)C(=O)N(c1ccc(C)cc1)C2=O` = 0%

Next part.
19. COc1cccc(C2c3c(-c4ccccc4)n[nH]c3C(=O)N2c2ccc(C(=O)O)cc2)c1 (stereo not drawn)
20. CC(=O)Nc1nc2ccc(Br)cc2s1
21. O=C(c1ccc2c(c1)C(=O)N(Cc1ccco1)C2=O)N1CCOCC1
22. CN1C(=O)CC(NNC(=O)c2ccc(Cl)cc2)C1=O (stereo not drawn)
23. O=C(Nc1ccc2oc(=O)ccc2c1)c1cccnc1Cl
24. COc1ccc(-c2[nH]c(-c3ccc(C(=O)O)cc3)nc2-c2ccccc2)cc1

entry no. | 19 | 20 | 21 | 22 | 23 | 24
M1AAP inhibition | 8% | 5% | 1% | 16% | 4% | 20%
XIAP antagonists | -2.7% | -3.0% | -3.6% | -1.7% | -3.3% | -4.1%
TNAP activators | 0.9 | 1.1 | 1 | 1.1 | 1 | 1.1
WT yeast gro inh | -2 | 1 | -2 | -6 | 29 | -5
WT yeast gro inh mutant strain | 3 | 9 | -24 | 7 | 0 | 6
LYP phosphatase | 2% | -6% | -4% | -9% | 2% | -36%
P. falciparum M17LAP | 23% | 1% | 11% | 2% | -7% | i
Yfh1-depleted yeast | i | · | i | i | i | i

25. O=C(Nc1ccc(-c2nc3ccccc3[nH]2)cc1)c1ccc2c(c1)OCO2
26. Cc1ccc(NS(=O)(=O)c2ccc(NC(=O)c3cccc(NC(=O)C(C)C)c3)cc2)cc1
27. COCCn1nc2cc(C(=O)NCC34CC5CC(CC(C5)C3)C4)ccc2c1OC
28. Cc1c(C(=O)O)sc2nc(C)n(C)c(=O)c12
29. COc1ccc(NC(=O)c2cc3sccc3n2Cc2ccc(F)cc2)cc1OC
30. O=C(COC(=O)c1ccccc1Nc1ccc(SC(F)F)cc1)NCc1ccco1

entry no. | 25 | 26 | 27 | 28 | 29 | 30
M1AAP inhibition | 5% | 5% | -6% | 1% | 3% | 4%
XIAP antagonists | -5.7% | -3.4% | -4.0% | -4.6% | -5.9% | -2.7%
TNAP activators | 1.1 | 1.1 | 1.1 | 1 | 1 | 1
WT yeast gro inh | 0 | -2 | 51 | 17 | 50 | -15
WT yeast gro inh mutant strain | 8 | -5 | 53 | 22 | 4 | -3
LYP phosphatase | -23% | 4% | -11% | 0% | 8% | 2%
P. falciparum M17LAP | -13% | 4% | -40% | 3% | -2% | 10%
Yfh1-depleted yeast | i | i | i | i | i | i

31. COc1ccc(C(=O)N/C(=C\c2cccs2)c2nc3ccccc3[nH]2)cc1OC
32. CCN(CC)S(=O)(=O)c1ccc2c(c1)nc(SCC(=O)N1CCOCC1)n2-c1ccccc1OC
33. CC(NC(=O)c1ccccc1Br)c1ccc2c(c1)CCCC2 (stereo not drawn)
34. Cc1cnc(C(=O)OCC(=O)N(C(C)C)C(C)C)cn1
35. Cc1cccc(Nc2ccccc2)c1
36. O=C(NNS(=O)(=O)c1ccc(Cl)cc1)c1sccc1-n1cccc1

entry no. | 31 | 32 | 33 | 34 | 35 | 36
M1AAP inhibition | 11% | -7% | 10% | 2% | 1% | 4%
XIAP antagonists | -3.4% | -3.8% | -1.2% | -17% | -9.2% | 1.1%
TNAP activators | 0.9 | 1.1 | 1.1 | 1.1 | 1.1 | 1.1
WT yeast gro inh | -4 | 5 | · | 7 | 12 | 0
WT yeast gro inh mutant strain | -6 | -4 | · | -6 | 7 | -6
LYP phosphatase | 4% | -1% | 1% | -6% | -2% | 0%
P. falciparum M17LAP | -1% | -12% | 5% | 1% | -2% | 13%
Yfh1-depleted yeast | i | i | i | i | i | i

37. O=[N+]([O-])c1ccc2nccn2c1
38. O=C(NCc1ccccc1)c1sc(=S)n2c1[nH]c(=O)c1ccccc12
39. O=C1NN(c2ccccc2)C(=O)/C1=C\c1ccccc1OCC(=O)N1CCOCC1
40. N#Cc1nc(-c2cccs2)oc1NCc1ccccc1
41. C=CCn1c(SCc2nc3ccccc3[nH]2)nnc1-c1cccc(OC)c1
42. CCOC(=O)c1c(C)[nH]c(C(=O)COC(=O)c2ccccc2NC(=O)c2ccco2)c1C

entry no. | 37 | 38 | 39 | 40 | 41 | 42
M1AAP inhibition | -1% | 19% | 16% | 10% | 1% | -5%
XIAP antagonists | -3.3% | 1.2% | -4.3% | -2.9% | -1.0% | -2.5%
TNAP activators | 1.1 | 1.1 | 1 | 1.1 | 1.2 | 1.1
WT yeast gro inh | 4 | -24 | -3 | 40 | -5 | 7
WT yeast gro inh mutant strain | -1 | -1 | -9 | 0 | -3 | -7
LYP phosphatase | -2% | -2% | -9% | -14% | -1% | 2%
P. falciparum M17LAP | 2% | 28% | 35% | -21% | 12% | -6%
Yfh1-depleted yeast | i | i | i | i | i | i

Results in sequence from the list:
XIAP antagonists for entries 37–42 → -3.3%, 1.2%, -4.3%, -2.9%, -1.0%, -2.5%
TNAP activators for entries 37–42 → 1.1, 1.1, 1, 1.1, 1.2, 1.1

(listing goes on)
43. CCNc1nc(NC(C)C)nc(SCCOc2ccc(C)cc2)n1
44. Cc1sc(NC(=S)NC(=O)C(C)(C)C)c(C(N)=O)c1C
45. Cc1nn2c(c1-c1ccccc1)NC1=C(C(=O)CCC1)C2c1ccccc1 (stereo not drawn)
46. Cc1ccsc1-c1nc(-c2ccccc2)c(-c2ccccc2)[nH]1
47. COc1ccc(C2N=C(N)N=C(N)N2c2ccccc2OC)cc1OC (stereo not drawn)
48. O=S(=O)(NC1CCCCC1NCc1ccco1)c1ccc(Cl)cc1 (stereo not drawn)
49. Cc1cccc(/C=N/n2c(C)nnc2C)c1
50. CCSc1nnc(NC(=O)CSc2nnc(Cc3cccn3C)n2-c2ccc(C)cc2)s1

entry no. | 43 | 44 | 45 | 46 | 47 | 48 | 49 | 50
M1AAP inhibition | -3% | 12% | 22% | 5% | 0% | 2% | 4% | 15%
XIAP antagonists | -3.7% | -1.3% | -5.6% | -5.2% | -2.7% | -4.4% | -4.5% | -3.1%
TNAP activators | 1.1 | 0.8 | 1.1 | 1.1 | 1.2 | 1.1 | 1 | 1.1
WT yeast gro inh | 16 | 1 | 33 | 7 | 21 | -2 | 5 | -9
WT yeast gro inh mutant strain | -4 | 11 | -32 | 17 | 8 | -1 | 1 | -7
LYP phosphatase | 0% | -5% | -10% | 3% | -2% | -2% | -6% | -3%
P. falciparum M17LAP | 5% | 4% | -15% | 0% | -7% | -14% | -2% | -3%
Yfh1-depleted yeast | i | i | i | i | i | i | i | i

Four compounds from above, arranged by SMILES length, largest number first.
50. CCSc1nnc(NC(=O)CSc2nnc(Cc3cccn3C)n2-c2ccc(C)cc2)s1
45. Cc1nn2c(c1-c1ccccc1)NC1=C(C(=O)CCC1)C2c1ccccc1 (stereo not drawn)
46. Cc1ccsc1-c1nc(-c2ccccc2)c(-c2ccccc2)[nH]1
44. Cc1sc(NC(=S)NC(=O)C(C)(C)C)c(C(N)=O)c1C

entry no. | 50 | 45 | 46 | 44
M1AAP inhibition | 15% | 22% | 5% | 12%
XIAP antagonists | -3.1% | -5.6% | -5.2% | -1.3%
TNAP activators | 1.1 | 1.1 | 1.1 | 0.8
WT yeast gro inh | -9 | 33 | 7 | 1
WT yeast gro inh mutant strain | -7 | -32 | 17 | 11
LYP phosphatase | -3% | -10% | 3% | -5%
P. falciparum M17LAP | -3% | -15% | 0% | 4%
Yfh1-depleted yeast | i | i | i | i

Compound activity deposited in PubChem by several laboratories.
